# Bioassay records (PubChem BioAssay)
# T cruzi repl – T. cruzi replication inhibition; T. cruzi beta-gal in NIH3T3, luminescence, 90 h; inhibition, % (test concentration not listed); 1.4% of 300,000 active;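 active = mean inhibition across valid replicates above about 55%, limit read from the data; inconclusive = mean below that limit but half or more replicates reach it; inactive = mean below it, under half of replicates reach it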;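 note: signal also drops with host cell toxicity which is not excluded here; 0% = plate median of DMSO wells and 100% = zero luminescence signal; higher percent means less beta-gal luminescence so fewer parasites; stock transfer was 50 nL into about 50 µL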
# B2AR ag – activates human beta-2 adrenergic receptor causing internalization. P07550. Am2.2-beta2AR cells, FAP receptor internalization, flow cytometry; reference of the scale not given here. response, % (concentration not given with the values). 0.43% of 340,000 active. AID 504454;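 active = response above a set limit, near 3 SD of response in nonfluorescent compounds, cut at about 42% in these data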;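 note: stock transfer was 100 nL into about 11 µL; a reference agonist was the positive control; negative values mostly stem from fluorescent compounds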
# Target sequence (P07550 whole entry, looked up): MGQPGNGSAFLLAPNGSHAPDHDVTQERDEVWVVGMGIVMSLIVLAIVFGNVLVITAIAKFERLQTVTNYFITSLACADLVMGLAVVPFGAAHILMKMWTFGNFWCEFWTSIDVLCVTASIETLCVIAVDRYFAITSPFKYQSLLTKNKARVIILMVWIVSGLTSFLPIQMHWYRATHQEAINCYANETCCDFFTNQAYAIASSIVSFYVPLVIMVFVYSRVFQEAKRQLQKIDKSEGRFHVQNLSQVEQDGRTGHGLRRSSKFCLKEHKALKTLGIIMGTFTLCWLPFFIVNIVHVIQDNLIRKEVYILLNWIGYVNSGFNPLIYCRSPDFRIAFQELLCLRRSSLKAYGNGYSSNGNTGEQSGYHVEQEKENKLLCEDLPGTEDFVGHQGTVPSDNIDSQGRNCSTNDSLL
# Calb FLC – C. albicans growth modulation with fluconazole; growth inhibition, % (test concentration not listed); 0.57% of 300,000 active; AID 1979; C. albicans CaCi-2 (fluconazole-resistant clinical isolate) + fluconazole, Alamar Blue growth, 48 h;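 active = most replicates above 75%; inconclusive = exactly half above 75%; inactive = most below 75%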;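 note: all wells also contain fluconazole at 8 µg/ml as a sub-toxic cotreatment; 0% = median of DMSO wells and 100% = median of geldanamycin control wells; wells of about 8 µL received 7.5 nL stock; the first replicate is given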
# RanGTP-Imp inh – inhibitors of RanGTP-importin-beta interaction, primary screen, biochemical, FRET, CFP-Ran, YFP-importin-beta, homogeneous; cell-free CFP-Ran/YFP-importin-beta FRET ratio; inhibition, % (no concentration beside the values); 1.1% of 300,000 active;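 active = most replicates above 15%; inconclusive = exactly half above 15%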;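 note: 0% = DMSO wells and 100% = Ran loaded with GDP instead of GTP; wells of about 40 µL received 100 nL stock; the first replicate is given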
# LANA-H2B inh – blocks KSHV LANA binding to histone H2A/H2B; cell-free LANA-H2A/H2B peptide, fluorescence polarization; inhibition, % (test concentration not listed); 0.6% of 320,000 active; in the data active = inhibition mostly above about 10%, no sharp cut-off; inactive = mostly below about 6.7%;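 note: stock transfer was 7.5 nL into about 10 µL; 0% = median of vehicle wells and 100% = median of positive control wells; one replicate is shown; the record names a cut of 25% in any replicate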
# UCH37 DUB inh – human UCH37 deubiquitinating enzyme inhibition. Q9Y5K5. inhibition, % (concentration not given with the values). 0.33% of 330,000 active. purified proteasome/UCH37, Ub-AMC cleavage fluorescence;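 active = mean of two replicates above 20%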;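 note: 0% = compound-free wells with enzyme and 100% = wells lacking proteasome; stock transfer was 100 nL into about 20 µL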
# Target sequence (Q9Y5K5 whole entry, looked up): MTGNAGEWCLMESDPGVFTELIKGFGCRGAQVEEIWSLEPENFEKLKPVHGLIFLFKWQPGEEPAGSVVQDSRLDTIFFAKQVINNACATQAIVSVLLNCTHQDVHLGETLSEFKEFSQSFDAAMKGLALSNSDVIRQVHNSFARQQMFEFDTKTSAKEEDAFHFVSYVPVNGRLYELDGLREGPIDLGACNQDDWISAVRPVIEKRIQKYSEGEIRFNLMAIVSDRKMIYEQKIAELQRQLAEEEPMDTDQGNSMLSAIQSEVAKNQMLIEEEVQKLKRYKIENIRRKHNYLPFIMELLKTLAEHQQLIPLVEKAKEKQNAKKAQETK
#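 Assay system: Proteasome-bound UCH37. Buffer or medium: pH 7.4 Tris-HCl (50 mM) with ovalbumin, ATP-MgCl2, DTT. Incubation: 30 min preincubation with enzyme, 25 min cleavage at room temperature. Measured by: fluorescence, ex 355 nm, em 460 nm. Read-out basis: percent inhibition. Control set: wells without proteasome as full block, compound-free enzyme plus substrate as uninhibited.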
# Beta apoptosis – beta cell apoptosis inhibition; 0.8% of 300,000 active; INS-1E cytokine-induced death, ATP luminescence, 48 h; percent of positive-control rescue, neutral wells zero; protection from apoptosis, % (no concentration beside the values);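 active = all replicates at 75% or more, or half of them and the mean; inconclusive = half reach 75% but not the mean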;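 note: 0% = cytokine-treated negative control wells and 100% = positive control rescue; higher means more ATP so stronger rescue from cytokine killing; wells of about 40 µL received 100 nL stock; the first replicate is given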
# A1 inh – inhibitors of the anti-apoptotic protein A1, read as caspase activation; MEF A1-2A-BIM cells, Caspase-Glo 3/7 luminescence, 3 h; percent of clofoctol response, vehicle zero; caspase activation, % (test concentration not listed); 0.066% of 330,000 active; AID 2462;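 active = over half of replicate activation scores above 10%, or exactly half above 10 with the replicate mean above 10; inconclusive = replicate mean below 10 yet half the replicates above 10; inactive = over half of replicates below 10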;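 note: wells of about 30 µL received 50 nL stock; many hits fall short of the cut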
# Starred values were filed as active, the others as inactive; u = inconclusive; x = no result given; + = active, no number; & = joins results of further samples.
SMILES,T cruzi repl,B2AR ag,Calb FLC,RanGTP-Imp inh,LANA-H2B inh,UCH37 DUB inh,Beta apoptosis,A1 inh
COc1ccc(/C=C2\CCc3ccccc3C2=O)cc1Cn1cccn1,44,3,16,0.3,-0.7,4.0,-2,0.4
O=C(O)c1cccc(NC(=O)c2ccc3c(c2)C(=O)N(CC2CCCO2)C3=O)c1 (stereo unspecified),-12,7,-8,-3.2,1.1,2.2,2,-5.5
CSCCC(NC(=O)c1ccc([N+](=O)[O-])cc1Cl)C(=O)OCC(=O)N1CCN(C(C)=O)CC1 (stereo unspecified),4,-6,0,-2.0,3.9,3.7,x,-0.2
Cc1cc(C)c(C(=O)CN2C(=O)NC3(CCCCCC3)C2=O)cc1C,16,1,4,4.4,6.1,2.4,0,-0.9
CC(C)NC(=O)Nc1ccc2c(c1)C(=O)N([C@H](C)CO)C[C@H](C)[C@@H](CN(C)C(=O)Nc1ccc(C(F)(F)F)cc1)O2,x,0,x,x,+,-1.0,0,0.2
Cc1ccc(C(=O)Nc2ccc(Cl)cn2)cc1,-47,-3,-39,-0.9,-1.9,4.9,7,-5.2
CCCc1cc(=O)[nH]c(SCC(=O)Nc2cc(S(=O)(=O)N(CC)c3ccccc3)ccc2Cl)n1,x,0,x,x,-3.5,4.4,-3,2.2
COc1ccc(S(=O)(=O)N2CCN(Cc3cccc(OC)c3)CC2)cc1,6,11,-7,1.0,-4.9,2.5,-9,-0.1
CCN(CC)CCNS(=O)(=O)c1ccc2[nH]cc(C(=O)O)c(=O)c2c1,-11,10,4,-3.1,2.1,-3.8,-8,0.9
CN(Cc1ccccc1)c1nc2c(c(=O)[nH]c(=O)n2C)n1CCOc1ccccc1,10,1,2,-3.3,-1.6,0.4,5,0.1
Cc1ccnc(SCC(=O)O)n1,-10,-4,-7,u,1.4,-2.6,-6,0.6
COc1ccccc1NC(=O)NCCCl,-11,5,-3,1.2,1.1,1.4,10,-0.5
O=C(CCS(=O)(=O)c1ccc(Br)cc1)NC1CCCC1,-3,2,-8,2.5,-1.2,2.6,-2,-0.4
CCOCCCN(CCC#N)S(=O)(=O)c1ccc(S(=O)(=O)N2CCCC2)cc1,-5,14,-18,6.7,0.4,1.1,x,-0.7
Cc1n[nH]c(C)c1CCC(=O)N/N=C/c1c[nH]c2ccccc12,-12,-6,-1,1.8,5.7,x,-2,-0.1
Nc1nc(NC(=O)Cc2ccccc2)nn1-c1ccccc1,-10,-3,4,-3.9,-1.2,0.8,-4,-0.5
O=C(O)c1c(Cl)c(Cl)c(Cl)c(Cl)c1C(=O)N1CCOCC1,-17,5,8,-2.2,-5.0,1.4,-7,0.9
COc1cccc(C(=O)/C(C#N)=N/Nc2cccc(-c3ccnc(C)n3)c2)c1,-1,24,0,-1.5,-7.2,x,23,-0.2
C[n+]1c2n(c3ccccc31)N=C(c1ccccc1)CS2,26&34,-16&-15,0&4,0.4&-2.5,1.1&2.4,6.2&6.4,35&73,0.2&-1.6
CNC(=O)c1cc(C(=O)c2ccccc2C(F)(F)F)c[nH]1,-14,-2,2,0.1,-2.4,6.9,5,-1.0
CCC(=O)NC(c1ccc([N+](=O)[O-])cc1)c1c(O)ccc2ccccc12 (stereo unspecified),3,6,-4,u,-9.3,6.7,0,0.1
COC(=O)CNc1ccc2c(c1)OCO2,-2,4,-6,-4.5,14,2.6,-1,0.4
COC(=O)Nc1ccc2c(c1)N(C(=O)CCN1CCOCC1)c1ccccc1S2,40,2,3,4.5,1.1,4.2,-4,0.2
Cc1ccc(S(C)(=O)=O)cc1C(=O)N1CC(C(N)=O)Oc2ccccc21 (stereo unspecified),3,-1,-9,0.2,-4.8,3.7,-1,0.2
CN(C)CC(=O)N1CCc2ccccc2C1,4,1,14,u,-4.2,2.8,-2,0.0
COC(=O)C1=C(N)OC2=C(C(=O)CC(C)(C)C2)C1c1ccccc1OCC#N (stereo unspecified),-3,-10,-5,-1.0,-2.2,5.2,5,-0.3
O=C(NCCc1nc2ccc(Cl)cc2[nH]1)C1CCC(=O)N(Cc2cccc(F)c2)C1 (stereo unspecified),-6,0,9,-0.9,-2.3,x,1,0.1
Oc1ccc(NCc2ccccc2OCc2ccccc2F)cc1,7,-3,19,-2.2,-5.0,0.5,18,-1.6
COc1cc2c(N3CCOCC3)cc(O)c(CC(=O)Nc3ccccc3)c2cc1OC,-6,-11,-1,-20,-2.1,-59,-2,-0.5
CCN1CCN(C(c2ccccc2)c2sc3nc(C)nn3c2O)CC1 (stereo unspecified),-22,-2,1,u,1.4,-0.1,-7,0.8
O=C(CCCCCN1C(=O)CCC1=O)Nc1ccc(Br)cc1F,1,3,-5,0.6,1.3,1.2,x,0.6
CCOC(=O)c1c(NC(=O)C(=O)N/N=C/c2ccc(O)c(OC)c2)sc2c1CCCCC2,-10,-4,1,-3.9,-0.7,x,0,0.1
O=C1C2CCCN2C(=O)N1CCCCN1CCN(c2ccc(F)cc2)CC1 (stereo unspecified),-14,-3,-7,3.2,-0.5,-0.6,-4,0.3
COc1ccc(N2CCN(C(=S)NC(=O)c3cccs3)CC2)c([N+](=O)[O-])c1,10,8,-3,5.8,-10,1.1,10,-0.3
CC(C)OC(=O)c1cc2c(=O)[nH]c(C(Cl)(Cl)Cl)nc2o1,23,-2,12,-3.1,4.0,5.2,6,-0.2
CCOC(=O)c1ccc(NC(=O)c2cc(F)c(F)cc2Cl)cc1,-1,3,24,0.3,0.5,-1.3,1,0.7
CC(OC(=O)c1ccccc1NS(=O)(=O)c1cccc(C(F)(F)F)c1)C(=O)N(C)Cc1ccccc1 (stereo unspecified),31,-6,30,3.3,0.3,1.7,-1,1.2
O=C(CSc1ncnc2c1cnn2-c1ccccc1)NC1CCS(=O)(=O)C1 (stereo unspecified),x,1,x,x,0.1,3.9,-3,-10
O=S(=O)(NCc1ccccc1Cl)c1ccc(-n2cccn2)cc1,-8,-10,0,2.6,1.8,-0.8,x,1.4
Cc1cccc(C)c1NC(=O)CNC(=O)C(C)N1CCN(c2cccc(Cl)c2)CC1 (stereo unspecified),x,10,x,x,-3.1,-0.3,0,-0.8

# Retrieved by structure from the entries so far:
SMILES,T cruzi repl,B2AR ag,Calb FLC,RanGTP-Imp inh,LANA-H2B inh,UCH37 DUB inh,Beta apoptosis,A1 inh
CCC(=O)NC(c1ccc([N+](=O)[O-])cc1)c1c(O)ccc2ccccc12 (stereo unspecified),3,6,-4,u,-9.3,6.7,0,0.1
COc1cccc(C(=O)/C(C#N)=N/Nc2cccc(-c3ccnc(C)n3)c2)c1,-1,24,0,-1.5,-7.2,x,23,-0.2
C[n+]1c2n(c3ccccc31)N=C(c1ccccc1)CS2,26&34,-16&-15,0&4,0.4&-2.5,1.1&2.4,6.2&6.4,35&73,0.2&-1.6

# (next part)
SMILES,T cruzi repl,B2AR ag,Calb FLC,RanGTP-Imp inh,LANA-H2B inh,UCH37 DUB inh,Beta apoptosis,A1 inh
CCCN1CCC(NC(=S)Nc2ccc(OC)c(OC)c2)CC1,-2,2,-12,-0.7,3.1,-0.5,-5,1.4
O=C(COC(=O)CCC(=O)c1ccc(Cl)cc1)NCc1ccco1,-16,4,4,-2.3,-0.2,1.4,-7,-1.8
CCOC(=O)[C@@H]1[C@H]2COc3ccccc3[C@@H]2N2C(=O)N(c3cccc(Cl)c3)C(=O)[C@]12C,7,2,45,-0.4,3.0,0.0,-12,-0.1
COc1ccc(C)cc1NC(=O)CNC(c1ccccc1)c1ccccc1,13,-2,15,3.1,1.0,5.1,-6,1.5
CN(C)c1cccc2c(S(=O)(=O)NCc3ccc(S(N)(=O)=O)cc3)cccc12,-6,7,5,-6.2,-8.6,-17,-2,2.9
CCn1c(CNC(=O)c2ccccc2Br)nnc1SCC(=O)NC1=NCCS1,-5,-1,-25,9.1,5.2,1.2,-11,0.9
CN(c1ccc(O)cc1)S(=O)(=O)c1ccc2ccccc2c1,11,-8,3,1.8,-15,2.6,-3,0.7
CCN(CC(=O)NC1CCS(=O)(=O)C1)S(=O)(=O)c1c(C)c(C)cc(C)c1C (stereo unspecified),-9,4,0,8.1,1.2,5.6,-5,0.6
Cc1cccc(-c2nc(CS(=O)CC(=O)NCc3cccs3)c(C)o2)c1 (stereo unspecified),-4,-2,-3,0.2,1.8,1.1,1,1.4
CC1=CC2=NC(=O)/C(=C\c3ccc(-c4cccc(Cl)c4)o3)C(=N)N2O1,-3,5,-4,-147,4.6,-21,5,2.4
COc1ccccc1C(=O)NC(=O)COC(=O)CNC(=O)c1ccc(Cl)cc1Cl,-2,-2,-6,3.3,-0.6,1.6,-2,-0.3
CCc1noc(C)c1C(=O)N1CCN(S(=O)(=O)c2cccc(C(F)(F)F)c2)CC1,x,-2,x,x,-1.8,0.8,2,-1.6
COc1ccc2ccc(O)c(CN3CCN(S(=O)(=O)c4cc([N+](=O)[O-])ccc4C)CC3)c2c1,x,-3,x,x,-4.1,-0.4,3,0.0
CC(=O)Nc1ccc(C(=O)OCC(=O)Nc2c(F)cccc2F)cc1,u,-2,1,9.1,0.7,-1.8,2,0.0
COc1ccc(S(=O)(=O)N2CCN=C2SCc2cccc(C)c2)cc1,18,-4,6,1.8,-3.5,5.2,-1,-0.1
COc1cc(/C=N\NC(C)=O)ccc1OC/C=C/c1ccccc1,-27,-7,17,2.0,1.4,x,5,0.0
CCOc1ccc(C=NC23CN4CN(CN(C4)C2)C3)cc1,-9,4,-3,1.1,3.0,2.8,-5,0.2
O=S(N1CCCCC1)C12CC3CC(CC(C3)C1)C2 (stereo unspecified),2,-1,-1,4.8,-5.1,3.7,-3,0.5
Cc1cccc(C)c1NC(=O)CN(C)C(=O)c1ccc(NS(=O)(=O)c2ccc3[nH]c(=O)[nH]c3c2)cc1,-4,0,-1,-1.8,x,1.5,-3,-0.1
CC1(C)Cc2c(cnn2-c2ccccc2)C(NC(=O)CCCn2cncn2)C1 (stereo unspecified),-20,-4,6,-0.4,-8.6,3.3,2,0.5
CCN(CC)C(=O)CN(c1cc2c(cc1OC)oc1ccccc12)S(=O)(=O)c1ccc(C)cc1,17,3,4,3.9,11,7.2,x,0.9
Nc1cc(=O)[nH]c(SCC(=O)Nc2cccnc2Cl)n1,-10,2,2,5.8,-8.6,6.5,-4,-0.6
CC(=O)OCn1nnc2ccccc2c1=O,-1,10,0,1.3,-8.2,4.7,-5,0.0
Cc1sc(NC(=O)c2c(F)cccc2F)nc1-c1ccccc1,1,0,0,2.8,-6.3,-2.5,1,0.1
Cc1cc(NC(=O)c2ccc(Cl)cc2Cl)no1,10,-3,-2,-10,3.2,2.9,x,-0.1
COC(=O)CSc1nsc(SCC(=O)OC)n1,-17,10,-6,-0.2,-1.5,2.2,-3,-0.6
COc1ccc(C(=O)Nc2nncs2)cc1S(=O)(=O)N1CCOCC1,-10,-3,3,2.2,11,0.8,x,0.6
O=C(CN1CCN(S(=O)(=O)c2ccccc2F)CC1)Nc1ccccc1C(=O)c1ccccc1,27,7,42,3.4,-6.7,1.0,10,0.9
CCOc1cccc(NC(=O)C2CC(=O)N(C)C(=Nc3cccc(F)c3)S2)c1 (stereo unspecified),26,6,-10,2.6,2.0,0.2,-10,0.0
